Ecoli rRNA inh: selective bacterial rRNA inhibition in E. coli; AID 720706; 1.6% of 350,000 active; E. coli WT GFP vs humanized-ribosome RFP mutants, fluorescence, 24 h; stronger effect = lower value; DMSO median 0, no signal -100; GFP signal change (wild-type ribosome), % (concentration not given with the values);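 active = significant combined selectivity score with lowered wild-type GFP, culture density cut under 30%, mutant RFP and density less affected; inactive = any of these conditions unmet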; note: one replicate is shown; some compounds called inactive have numbers as strong as hits
MLL AF4-AF9 inh: MLL-AF4/AF9 protein interaction inhibition. inhibition, % at 10 µM. 0.47% of 350,000 active. P42568. AlphaScreen, biotin-AF4 peptide binding to FLAG-AF9;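 active = every replicate reaching a set inhibition limit, whatever the replicate mean, cut at about 25% in these data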;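 note: 0% = plate neutral control median and 100% = total signal loss; the record names both 10 and 1 µM as test concentration; the first replicate is given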
Target sequence (P42568 whole entry, looked up): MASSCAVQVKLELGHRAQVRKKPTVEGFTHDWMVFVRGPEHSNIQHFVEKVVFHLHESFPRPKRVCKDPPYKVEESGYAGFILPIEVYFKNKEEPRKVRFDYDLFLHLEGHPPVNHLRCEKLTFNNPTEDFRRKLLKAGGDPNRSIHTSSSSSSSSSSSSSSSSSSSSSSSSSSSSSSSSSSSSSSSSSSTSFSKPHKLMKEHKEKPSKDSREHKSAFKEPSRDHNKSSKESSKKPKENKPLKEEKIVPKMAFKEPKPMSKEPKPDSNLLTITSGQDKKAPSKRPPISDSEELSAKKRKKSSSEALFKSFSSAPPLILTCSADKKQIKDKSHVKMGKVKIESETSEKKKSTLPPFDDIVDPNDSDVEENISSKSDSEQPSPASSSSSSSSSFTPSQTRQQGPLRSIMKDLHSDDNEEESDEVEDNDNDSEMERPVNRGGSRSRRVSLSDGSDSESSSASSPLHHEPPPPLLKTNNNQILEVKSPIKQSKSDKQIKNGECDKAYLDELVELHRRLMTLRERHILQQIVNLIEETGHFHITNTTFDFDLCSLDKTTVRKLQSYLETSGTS
FGF22 binding: FGF22 (human) thermal shift binding; Q9HCT0; recombinant FGF22 thermal shift, SYPRO orange fluorescence; percent of sucrose octasulfate shift, DMSO zero; calls only at 9.99 µM; 1.5% of 340,000 active; AID 651658;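 active = melting point raised past a set limit in the mean and every replicate; three in four hits are not shown here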
Target sequence (Q9HCT0 whole entry, looked up): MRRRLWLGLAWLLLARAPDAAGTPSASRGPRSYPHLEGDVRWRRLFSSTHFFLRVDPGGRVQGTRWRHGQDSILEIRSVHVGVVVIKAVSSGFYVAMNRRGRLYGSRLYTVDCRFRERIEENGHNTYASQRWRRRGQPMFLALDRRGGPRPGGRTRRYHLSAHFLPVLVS
Ecoli rRNA inh OD600: recorded beside Ecoli rRNA inh, whose call it bears; OD600 change, %; measured here: OD600 growth;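 optical density of the mix in the first replicate; 0 = DMSO median and -100 = no signal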
Ecoli rRNA inh RFP: recorded beside Ecoli rRNA inh, whose call it bears; RFP signal change, %; measured here: RFP humanized mutant strains;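 first replicate; 0 = DMSO median and -100 = no signal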
Starred values were filed as active, the others as inactive; i = inactive.

Ecoli rRNA inh | Compound | Ecoli rRNA inh OD600 | Ecoli rRNA inh RFP | MLL AF4-AF9 inh | FGF22 binding
-0.9 | COc1ccc(OC)c(CN2C(=O)CSCC2(C)C(=O)NCc2ccccc2)c1 (centres undefined) | 11.0 | 1.5 | 0.7 | i
-8.0 | C[C@@H]1CN([C@@H](C)CO)C(=O)Cc2cc(NC(=O)NC3CCCCC3)ccc2O[C@H]1CN(C)S(=O)(=O)c1cccs1 | -14.9 | 1.1 | 1.3 | i
-1.3 | Cc1noc(C)c1NC(=O)Nc1ccc2c(c1)C(=O)N([C@H](C)CO)C[C@@H](C)[C@H](CN(C)S(=O)(=O)c1ccc(Cl)cc1)OCCCC[C@H](C)O2 | -7.1 | -0.9 | 2.5 | i
-1.5 | C[C@@H]1CCCCO[C@@H](CN(C)C(=O)c2ccccc2)[C@H](C)CN([C@@H](C)CO)C(=O)c2cc(NC(=O)Nc3cccc4ccccc34)ccc2O1 | 1.9 | 2.1 | -0.4 | i
-16.5 | CCCCCCn1c(=O)n2n(c1=O)C[C@]1(OC(=O)NC3CCCC3)CN(S(=O)(=O)c3ccc(C)cc3)C[C@]1(O)C2 | -23.2 | 1.5 | -1.2 | i
-1.6 | C[C@@H]1CCCCO[C@@H](CN(C)S(C)(=O)=O)[C@H](C)CN([C@@H](C)CO)C(=O)c2cc(NC(=O)c3ccccc3)ccc2O1 | 2.0 | 0.7 | -8.3 | i
1.2 | COC(=O)C[C@H]1CC[C@H](N)[C@@H](CO)O1 | 6.5 | 0.5 | -0.8 | i
2.2 | C[C@H](CO)N1C[C@H](C)[C@@H](CN(C)C(=O)c2ccncc2)Oc2ncc(C#C[C@@H](C)O)cc2C1=O | 2.9 | -1.3 | -0.8 | i
0.2 | CO[C@H]1CN(C)C(=O)c2ccc(NC(=O)Nc3cc(F)ccc3F)cc2OC[C@H](C)NC[C@@H]1C | 1.6 | 0.2 | 0.5 | i
-2.8 | CN(C)C(=O)C[C@@H]1C[C@@H]2c3cc(NC(=O)CC4CC4)ccc3O[C@@H]2[C@@H](CO)O1 | 5.2 | -0.8 | 0.6 | i
8.9 | C[C@@H]1CN([C@@H](C)CO)C(=O)Cc2cc(NS(=O)(=O)c3ccc(F)cc3)ccc2O[C@@H]1CN(C)C | 11.3 | 1.4 | -4.2 | i
-1.5 | O=C(N[C@@H]1CC[C@H](CC(=O)N2CCc3ccccc3C2)O[C@H]1CO)C1CCC1 | -5.8 | -3.6 | -20.8 | i
2.0 | C[C@@H]1CN([C@@H](C)CO)C(=O)c2cc(NC(=O)Cc3ccccc3)ccc2O[C@H]1CN(C)Cc1ccc(C(=O)O)cc1 | -4.8 | 0.2 | -1.6 | i
2.4 | CNC[C@H]1Oc2ccc(NS(=O)(=O)c3cccs3)cc2C(=O)N([C@@H](C)CO)C[C@@H]1C | 6.2 | 0.9 | -3.5 | i
-0.9 | COc1cccc(NC(=O)N(C)C[C@H]2Oc3cc(C#Cc4ccncc4)ccc3S(=O)(=O)N([C@H](C)CO)C[C@@H]2C)c1 | -12.8 | 3.0 | 0.9 | i
2.3 | COc1cccc(C(NC(C)=O)c2nc(-c3ccc(F)cc3OC)cs2)c1 (centres undefined) | -17.1 | -1.7 | -4.1 | i
-0.4 | O=C(C[C@@H]1C[C@@H]2c3cc(NC(=O)C4CCOCC4)ccc3O[C@@H]2[C@H](CO)O1)NCc1cccnc1 | 7.8 | -0.1 | 0.9 | i
14.6 | COc1ccc(Cl)cc1-c1cc(C(=O)NCc2cc(C(F)(F)F)cc(C(F)(F)F)c2)[nH]n1 | 22.5 | -1.7 | -2.9 | i
-1.6 | O=C(C[C@@H]1CC[C@@H](NC(=O)CC2CC2)[C@@H](CO)O1)NCc1ccc(Cl)cc1 | 1.5 | -1.2 | -0.2 | i
3.2 | CCOC(=O)c1oc2ccccc2c1COC(=O)CNC(=O)c1ccccc1F | -6.9 | 2.8 | 0.4 | i
-0.9 | COc1ccc2c3c(n(C)c2c1)[C@@H](CO)N(C(=O)Nc1ccc(F)cc1)CC31CCN(S(=O)(=O)c2cccc(F)c2)CC1 | 8.9 | -3.2 | -0.7 | i
7.9 | CN1CCN(C(=O)C[C@@H]2CC[C@H]3[C@@H](COC[C@@H](O)CN3C(=O)C3CCCC3)O2)CC1 | 6.2 | 5.7 | -0.9 | i
-0.1 | COc1ccc(NC(=O)Nc2ccc3c(c2)[C@@H]2C[C@@H](CC(=O)NCc4ccccc4F)O[C@H](CO)[C@@H]2O3)cc1 | -4.7 | -2.2 | -1.5 | i
0.0 | COc1ccccc1NC(=O)N[C@H]1CC[C@H](CCn2cc(-c3cccnc3)nn2)O[C@@H]1CO | -4.2 | -0.4 | -14.9 | i
6.0 | COCC(=O)N(C)C[C@@H]1Oc2cc(C#CC(C)(C)O)ccc2S(=O)(=O)N([C@H](C)CO)C[C@@H]1C | 10.4 | -7.8 | -1.6 | i
-0.3 | O=C(CCNC(=O)C1CCN(S(=O)(=O)c2ccc(F)cc2)CC1)NCc1ccccn1 | 11.4 | -1.4 | 0.7 | i
-0.2 | CNC(=O)C[C@@H]1CC[C@@H]2[C@@H](COc3ccc(NS(=O)(=O)c4cccc(F)c4)cc3C(=O)N2C)O1 | 0.5 | -0.4 | -0.4 | i
-2.6 | C[C@H](CO)N1C[C@H](C)[C@@H](CN(C)Cc2ccccc2)Oc2ccc(NC(=O)C3CCCCC3)cc2CC1=O | -13.2 | 0.7 | 8.3 | i
-0.7 | CCS(=O)(=O)Nc1ccc2c(c1)C(=O)N(C)C[C@H](OC)[C@H](C)CN(Cc1nccs1)[C@H](C)CO2 | -2.3 | -0.8 | -0.7 | i
3.8 | COCCNC(=O)C[C@H]1C=C[C@@H](NC(=O)NC2CCCC2)[C@@H](CO)O1 | 6.2 | 1.9 | -1.9 | i
7.6 | CC(C)C[C@@H]1Cc2[nH][nH]c(=O)c2[C@H](C(C)C)O1 | 0.1 | -1.8 | -3.8 | i
-1.6 | COCC#Cc1ccc2c(c1)O[C@@H](CN(C)Cc1ccc3c(c1)OCO3)[C@@H](C)CN([C@@H](C)CO)S2(=O)=O | -13.2 | 1.3 | 8.9 | i
2.6 | C[C@@H]1CN([C@H](C)CO)C(=O)c2cc(-c3ccc(F)cc3)cnc2O[C@@H]1CN(C)C(=O)c1cccnc1 | -2.1 | -1.0 | -3.3 | i
3.3 | COc1ccc(OC)c2c1C(=O)CC2C (centres undefined) | 3.5 | 0.6 | -59.5 | i
2.2 | O=C(C[C@H]1C=C[C@H](NC(=O)c2ccncc2)[C@@H](CO)O1)NCC1CC1 | 3.5 | -0.8 | 0.4 | i
-0.5 | C[C@@H]1CN([C@H](C)CO)C(=O)c2cc(NC(=O)Cc3ccccc3)ccc2O[C@@H](C)CCCCO[C@H]1CN(C)C(=O)Nc1ccccc1 | -3.6 | -1.3 | 1.8 | i
4.0 | CCCNC(=O)N(C)C[C@H]1Oc2ncc(C#Cc3ccncc3)cc2C(=O)N([C@@H](C)CO)C[C@H]1C | 0.6 | -1.4 | -2.9 | i
-1.9 | COc1ccc(NC(=O)N2C[C@@H]3[C@H](c4ccccc42)[C@H](CO)N3C(=O)C2CC2)cc1 | 5.5 | -2.4 | 0.4 | i
-8.7 | CCCCCNC(=O)C(c1ccc(C(F)(F)F)cc1)n1c(=O)c(-c2ccco2)nc2ccccc21 (centres undefined) | -5.9 | -7.8 | 1.0 | i
6.6 | CC(=O)Nc1cccc(-c2cccc3nccn23)c1 | 9.7 | -1.0 | -2.6 | i

Individual results from the list:
Entry for CNC(=O)C[C@@H]1CC[C@@H]2[C@@H](COc3ccc(NS(=O)(=O)c4cccc(F)c4)cc3C(=O)N2C)O1 under Ecoli rRNA inh RFP: -0.4
Entry for COc1ccc2c3c(n(C)c2c1)[C@@H](CO)N(C(=O)Nc1ccc(F)cc1)CC31CCN(S(=O)(=O)c2cccc(F)c2)CC1 under MLL AF4-AF9 inh: -0.7
Entry for COCC(=O)N(C)C[C@@H]1Oc2cc(C#CC(C)(C)O)ccc2S(=O)(=O)N([C@H](C)CO)C[C@@H]1C under MLL AF4-AF9 inh: -1.6

As a working copy, some entries already given.
Ecoli rRNA inh | Compound | Ecoli rRNA inh OD600 | Ecoli rRNA inh RFP | MLL AF4-AF9 inh | FGF22 binding
-8.0 | C[C@@H]1CN([C@@H](C)CO)C(=O)Cc2cc(NC(=O)NC3CCCCC3)ccc2O[C@H]1CN(C)S(=O)(=O)c1cccs1 | -14.9 | 1.1 | 1.3 | i
-1.3 | Cc1noc(C)c1NC(=O)Nc1ccc2c(c1)C(=O)N([C@H](C)CO)C[C@@H](C)[C@H](CN(C)S(=O)(=O)c1ccc(Cl)cc1)OCCCC[C@H](C)O2 | -7.1 | -0.9 | 2.5 | i

More compounds
Ecoli rRNA inh | Compound | Ecoli rRNA inh OD600 | Ecoli rRNA inh RFP | MLL AF4-AF9 inh | FGF22 binding
-2.8 | C[C@H](CO)N1C[C@H](C)[C@@H](CN(C)Cc2ccccn2)Oc2cc(-c3cncnc3)ccc2S1(=O)=O | -4.0 | -3.3 | -0.3 | i
-1.2 | C[C@@H]1CN([C@H](C)CO)C(=O)c2cc(C#CCN(C)C)cnc2O[C@@H]1CN(C)Cc1ccccc1F | 2.1 | -7.4 | 1.6 | i
-2.3 | C[C@@H]1CN([C@H](C)CO)C(=O)c2cccc(NC(=O)CCCCCC(=O)Nc3ccccc3N)c2O[C@@H]1CN(C)Cc1ccc(C(F)(F)F)cc1 | -11.4 | 0.4 | 0.6 | i
4.2 | Cc1noc(C)c1NC(=O)N(C)C[C@@H]1Oc2c(NC(=O)C3CC3)cccc2C(=O)N([C@H](C)CO)C[C@H]1C | 14.6 | -0.5 | -1.7 | i
2.4 | CCNC(=O)C[C@@H]1CC[C@@H](NC(=O)C2CCOCC2)[C@@H](CO)O1 | 6.9 | 0.7 | 1.2 | i
0.9 | CC(=O)NC(c1ccccc1)c1nc(-c2ccccc2)cs1 (centres undefined) | -2.6 | 5.1 | -1.7 | i
-49.9 | CCS(=O)(=O)N1[C@H](C#N)[C@H](c2ccc(C#Cc3ccccc3F)cc2)[C@@H]1CO | -73.2 | -7.9 | 0.0 | i
10.8 | CC1(Cc2cccc(C(N)=O)c2)C(=O)Nc2c(Cl)cccc21 (centres undefined) | 4.3 | 0.5 | -0.5 | i
5.5 | CO[C@H]1CN(C)C(=O)c2cc(NC(C)=O)ccc2OC[C@H](C)N(Cc2cncnc2)C[C@@H]1C | 4.7 | -1.3 | -4.3 | i
4.2 | Cc1noc(C)c1NC(=O)N(C)C[C@@H]1Oc2ccc(NC(=O)NC(C)C)cc2CC(=O)N([C@H](C)CO)C[C@@H]1C | 2.1 | -1.7 | 0.6 | i
4.6 | CC(C)NC(=O)N(C)C[C@H]1Oc2ccc(NS(=O)(=O)c3cn(C)cn3)cc2CC(=O)N([C@H](C)CO)C[C@@H]1C | 2.3 | 0.0 | -2.1 | i
-0.6 | CO[C@H]1CN(C)C(=O)c2ccc(NC(=O)Nc3c(C)noc3C)cc2OC[C@@H](C)N(CCC(F)(F)F)C[C@@H]1C | -6.3 | -1.4 | 1.3 | i
1.8 | CC(=O)c1ccc(S(=O)(=O)NCCOc2ccccc2)cc1 | 1.7 | -2.3 | -3.4 | i
0.2 | CO[C@H]1CN(C)C(=O)c2cc(NC(=O)c3ccccc3F)ccc2OC[C@H](C)N(CC2CC2)C[C@@H]1C | -2.0 | -1.0 | -0.1 | i
-7.5 | CSc1ccccc1OCc1cc(C(=O)NCC(C)Oc2cccnc2)no1 (centres undefined) | -17.2 | -0.9 | -1.0 | i
5.2 | CN1[C@@H]2c3ccc(C4=CCCC4)c(=O)n3C[C@H]1[C@H](CO)[C@H]2C(=O)N1CCOCC1 | 8.6 | -4.0 | -5.8 | i
-2.3 | Cc1ccccc1-c1ccc2c(c1)O[C@@H](CN(C)C(=O)c1ccccn1)[C@H](C)CN([C@@H](C)CO)S2(=O)=O | -21.9 | -0.4 | 0.1 | i
-0.6 | C[C@H]1CN([C@@H](C)CO)C(=O)c2cccc(NS(=O)(=O)c3cn(C)cn3)c2O[C@@H]1CN(C)C(=O)Nc1ccc(F)cc1 | 2.0 | -0.9 | -7.0 | i
0.4 | COC(=O)N(C)C[C@H]1OCc2ccccc2-c2c(n(C)c3ccccc23)C(=O)N([C@@H](C)CO)C[C@@H]1C | -3.6 | 1.5 | -0.3 | i
37.7 | COc1ccc(-c2c(Sc3ccccc3)c3cc(-c4ccc5c(c4)OCO5)ccc3n2C)cc1 | 16.4 | 2.3 | -0.3 | i
0.7 | CO[C@H]1CN(C)C(=O)c2ccc(NC(=O)Nc3ccccc3F)cc2OC[C@@H](C)NC[C@@H]1C | -2.4 | -0.2 | -1.2 | i
2.2 | C/C=C/c1ccc([C@H]2[C@@H](CO)N(C(=O)CC)C23CN(S(=O)(=O)CC)C3)cc1 | 5.6 | 1.3 | -0.2 | i
-0.8 | Cc1cccc(CNC(=O)C2CCC(=O)N(CCCc3ccccc3)C2)c1 (centres undefined) | -2.0 | 0.3 | -9.0 | i
-0.3 | Cc1ccc(S(=O)(=O)Nc2ccc3c(c2)C(=O)N([C@H](C)CO)C[C@@H](C)[C@@H](CN(C)C(=O)NC2CCCCC2)OCCCC[C@@H](C)O3)cc1 | -4.8 | 10.3 | -0.3 | i
6.0 | CCOC1=C2CN(S(=O)(=O)c3ccc(C)cc3)[C@H](c3cccs3)C[C@H]2n2c(=O)n(-c3ccccc3)c(=O)n2C1 | 18.0 | 9.2 | -1.3 | i

Assay outcomes deposited in PubChem by Broad Institute.

Not all compounds are listed (hit frequency here may not be typical).
